# PrP 5UTR inh – inhibition of PrP 5' UTR reporter expression; cell-based PrP 5' UTR mRNA reporter, plate reader; inhibition, % (concentration not given with the values); AID 488862, 2010; 340,000 tested, 0.35% active;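 active = every replicate at 50% or more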;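 note: 0 = median of the neutral control wells; tested in H4 reporter cells; numbers are from one replicate; inactives centre near -14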
# Sa RN4220 lethal – growth inhibition of S. aureus RN4220, primary screen, OD600 | 16 h | inhibition, % (no concentration beside the values) | AID 1259311, 2017 | 330,000 tested, 0.33% active;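 active = z-score of -3 or lower and OD600 up to 0.18 on both plates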;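 note: plate controls were untreated cells for no effect and reference antibiotic for full effect; stock transfer was 100 nL into about 80 µL; one replicate is shown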
# Mtb hypoxia inh – PubChem AID 1159583. M. tuberculosis hypoxia-regulated fluorescent reporter, fluorescence. fluorescence inhibition, % (test concentration not listed). 300,000 tested, 0.1% active;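 active = 35 to 45% if threefold the growth effect, above 45% if 1.5-fold the growth effect; inactive = the rest, general growth blockers included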;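 note: wells of about 50 µL received 100 nL stock; 0% = vehicle wells and 100% = reference inhibitor wells; whole bacteria with a GFP reporter of the hypoxia response; strong numbers were not always called active; many hits fall short of the cut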
# Bead autofluor – compound fluorescence in toxin protease inhibitor counterscreen. 360,000 tested, 3.1% active. compound autofluorescence counterscreen, microsphere flow cytometry; stronger effect = higher value. fluorescence intensity (test concentration not listed);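 active = at least 3 SD above the mean of all compounds, about 16000 in these data; inconclusive = too few beads counted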;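 note: 100 nL of 1 mM stock went into each well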
# ugtP null kill – growth inhibition of ugtP-null S. aureus, primary screen, RN4220 ugtP deletion, OD600; 16 h; some inactives read as strong as hits; growth inhibition, % (concentration not given with the values); 330,000 tested, 0.54% active;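 active = z-score under -3 and OD600 up to 0.15 on both plates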;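 note: plate controls were untreated wells for no effect and antibiotic for full effect; wells of about 80 µL received 100 nL stock; the first replicate is given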
# BJeLR lethal – MLPCN primary cell-based screen for lethality selective to Ras in HRASV12 cells; BJeLR (HRASV12) viability, CellTiter-Glo ATP luminescence, 48 h; reference of the scale not given here; inhibition, % (no concentration beside the values); 300,000 tested, 0.17% active;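 active = replicate mean above 50%; inconclusive = above 50% but judged a plate artefact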;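 note: 50 nL library stock added to about 25 µL; numbers are from one replicate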
# Mtb hypoxia inh growth – also measured in Mtb hypoxia inh; calls as there; growth inhibition, %; measured here: M. tuberculosis growth (absorbance);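 0% = vehicle and 100% = reference antibiotic; read after six days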
# An asterisk follows results filed as active; ? = inconclusive; . = no result given. Not a hit list; any-hit rate near 3.9%.
smiles | Bead autofluor | BJeLR lethal | Mtb hypoxia inh | Sa RN4220 lethal | PrP 5UTR inh | ugtP null kill | Mtb hypoxia inh growth
O=C(COc1ccccc1-c1ccccc1)NNC(=O)NC1CCCCC1 | 4740 | 4 | 2 | 5.3 | 1 | 17 | 9
O=[N+]([O-])c1cc2c(cc1CN1CCN(c3ccc(F)cc3)CC1)OCO2 | 4387 | 3 | -7 | -1.5 | -16 | -2 | 0
CC1CCCN(C(C(=O)Nc2ccc3c(c2)OCCO3)c2ccccc2)C1 (centres undefined) | 5206 | 0 | . | 1.3 | -28 | 2 | .
COc1ccc(-c2ccc(-c3nnn(CC(=O)N4CCOCC4)n3)cc2)cc1 | 9812 | 3 | 4 | 2.3 | -42 | -2 | 2
CC(=NNc1ccc(C#N)cc1[N+](=O)[O-])c1ccc(O)cc1 | . | . | 11 | 0.9 | . | -5 | -2
CNc1nc(N)c([N+](=O)[O-])c(NCCO)n1 | 10080 | 1 | . | . | -19 | . | .
CCOC(=O)c1ccc(NC(=O)COc2ccccc2CNCCc2ccccc2)cc1 | 4720 | 12 | 16 | 3.2 | 2 | -31 | 12
Cn1cnc(S(=O)(=O)N2CCN(c3cccc(C(F)(F)F)c3)CC2)c1 | 6114 | 3 | 2 | 1.6 | 4 | 3 | 2

# Given with values under each structure: part of the list above.
# Order of results – Bead autofluor, BJeLR lethal, Mtb hypoxia inh, Sa RN4220 lethal, PrP 5UTR inh, ugtP null kill, Mtb hypoxia inh growth
CCOC(=O)c1ccc(NC(=O)COc2ccccc2CNCCc2ccccc2)cc1
    4720, 12, 16, 3.2, 2, -31, 12
CC(=NNc1ccc(C#N)cc1[N+](=O)[O-])c1ccc(O)cc1
    ., ., 11, 0.9, ., -5, -2
COc1ccc(-c2ccc(-c3nnn(CC(=O)N4CCOCC4)n3)cc2)cc1
    9812, 3, 4, 2.3, -42, -2, 2
Cn1cnc(S(=O)(=O)N2CCN(c3cccc(C(F)(F)F)c3)CC2)c1
    6114, 3, 2, 1.6, 4, 3, 2
O=C(COc1ccccc1-c1ccccc1)NNC(=O)NC1CCCCC1
    4740, 4, 2, 5.3, 1, 17, 9

# Exported field by field: part of the list above.
COc1ccc(-c2ccc(-c3nnn(CC(=O)N4CCOCC4)n3)cc2)cc1
  Bead autofluor: 9812 | BJeLR lethal: 3 | Mtb hypoxia inh: 4 | Sa RN4220 lethal: 2.3 | PrP 5UTR inh: -42 | ugtP null kill: -2 | Mtb hypoxia inh growth: 2
CC(=NNc1ccc(C#N)cc1[N+](=O)[O-])c1ccc(O)cc1
  Bead autofluor: . | BJeLR lethal: . | Mtb hypoxia inh: 11 | Sa RN4220 lethal: 0.9 | PrP 5UTR inh: . | ugtP null kill: -5 | Mtb hypoxia inh growth: -2
CNc1nc(N)c([N+](=O)[O-])c(NCCO)n1
  Bead autofluor: 10080 | BJeLR lethal: 1 | Mtb hypoxia inh: . | Sa RN4220 lethal: . | PrP 5UTR inh: -19 | ugtP null kill: . | Mtb hypoxia inh growth: .

# Carrying on.
smiles | Bead autofluor | BJeLR lethal | Mtb hypoxia inh | Sa RN4220 lethal | PrP 5UTR inh | ugtP null kill | Mtb hypoxia inh growth
O=C(CN1C(=O)CSC1=O)Nc1ccccc1F | 4391 | -9 | . | 0.9 | -11 | -2 | .
O=C(C1CC(=O)N(c2ccc3c(c2)OCCO3)C1)N1CCN(Cc2ccccc2F)CC1 (centres undefined) | 3439 | . | 16 | 3.4 | 86* | 4 | 2
COc1ccccc1/C=C1\SC(=S)N(CCC(=O)NCCc2ccc(O)cc2)C1=O | 5831 | 3 | 3 | -3.1 | 2 | -2 | -5
CCN(CC)c1ncnc2ccc(Br)cc12 | 3814 | -16 | -2 | -1.0 | 9 | 14 | 6
CC(C)(C)c1cc(CN2CCN(CCC#N)CC2)cc(C(C)(C)C)c1O | 3162 | -16 | 0 | -2.5 | 8 | -5 | -3
Cc1ccccc1C(=O)Nc1ccc(C(=O)N/N=C/c2ccc(O)c(Br)c2)cc1 | 2415 | -4 | . | . | -13 | . | .
COc1cc(C(=O)NNC(=O)CSc2nnc3ccccn23)cc(OC)c1OC | 3676 | . | 5 | 2.7 | -43 | 5 | -5
COc1ccc(Cl)c(NC(=O)NCCN2CCN(c3ccccc3)CC2)c1 | 3681 | -9 | . | 4.6 | -17 | 11 | .
O=C(Nc1cccnc1)c1ccc(Cl)c([N+](=O)[O-])c1 | 4731 | -7 | 12 | 0.5 | -14 | 6 | 5
C=C(C)Cn1c(-c2cccc([N+](=O)[O-])c2)n[nH]c1=S | 3797 | -17 | . | . | -28 | . | .
COc1ccc(C(=O)CN2C(=O)c3ccccc3C2=O)c(OC)c1C | 8216 | 6 | 5 | 0.5 | 2 | 19 | 5
Cc1ccc(Cl)cc1NC(=O)CN1CCOCC1 | 6145 | -4 | -6 | 6.0 | -36 | 7 | 7
CCSC(=Nc1ccccc1)C1=C(O)COC1=O | 3887 | 8 | . | -4.3 | -23 | 2 | .
O=C(CN1CCN(Cc2ccccc2Cl)CC1)NN=Cc1ccccn1 | . | . | -5 | 2.5 | . | -2 | 4
c1ccc(CCSc2nccn2-c2ccccc2)cc1 | 2857 | -1 | . | 4.9 | -37 | 10 | .
Cc1nc(-c2cc(C#N)c(=O)[nH]c2C)cs1 | 3755 | -5 | 12 | 4.6 | 2 | 4 | 5
CC1Sc2ccc(C(=O)NCc3ccccc3Cl)cc2NC1=O (centres undefined) | 6437 | . | 0 | -4.7 | -13 | -1 | -6
S=C(Nc1ccccc1)Nc1nc2ccccc2n1CCOc1ccccc1 | 5664 | 3 | -5 | 4.9 | -18 | 3 | 6
COc1ccc(NC(=O)c2ccco2)cn1 | 5196 | -3 | -1 | 0.2 | -31 | 14 | 6
O=C(CCCN1C(=O)c2ccccc2C1=O)Nc1ccc(S(=O)(=O)N2CCCCC2)cc1 | 11121 | 3 | 2 | 0.1 | . | 3 | 15
COc1ccc(NS(=O)(=O)c2cc(NC(=O)c3cnccn3)ccc2N2CCCC2)cc1 | 2477 | 10 | . | . | -8 | . | .
CCOC(=O)N1CCN(S(=O)(=O)c2ccc(C(=O)NNc3nc4c(C)cc(C)cc4s3)cc2)CC1 | 5535 | -3 | -9 | 14 | . | -1 | 9
CCn1cnc2cc(NCc3cccs3)ccc21 | 3555 | 14 | 8 | 8.4 | -35 | 5 | 1
COc1cccc(OC)c1C(=O)Nc1cccc(-c2ccc(N3CCOCC3)nn2)c1 | . | 0 | 2 | 5.8 | -49 | 10 | -3
CCOC(=O)N1CCN(C(=O)CSCc2ccccc2Cl)CC1 | 2283 | -3 | -3 | 0.1 | -43 | 8 | 1
CNC(=O)c1ccc(Nc2nnc(C)c3ccccc23)cc1 | 2572 | 9 | 5 | 6.0 | 0 | 10 | -6
Cc1ccccc1C(=O)Nc1ccccn1 | ? | -15 | 2 | 7.6 | -28 | 1 | 4
O=C(c1cccn2c(=O)c3ccccc3nc12)N1CCC2(CC1)OCCO2 | 22328* | -1 | 11 | 5.2 | -37 | 3 | 6
Cc1c(C)n2c(SCC(=O)Nc3cccc4ccccc34)nnc2[nH]c1=O | 5853 | -8 | 0 | 2.4 | -17 | 3 | -9
Cc1nn(-c2ccccn2)c2nc(-c3cccs3)cc(C(=O)N3CCOCC3)c12 | 3463 | -1 | 4 | 5.0 | -20 | -4 | 7
O=C(Nc1ccccc1-c1ccccc1)c1cc(C(F)(F)F)cc(C(F)(F)F)c1 | 11537 | 0 | 4 | 13 | -7 | -7 | 3
Cc1cc2[nH]c(=O)c(=O)[nH]c2cc1S(=O)(=O)NCc1ccccc1 | 4865 | -1 | 3 | 2.0 | -5 | 7 | 3
CCn1c(SCC(=O)N2CCOCC2)nc2sc3c(c2c1=O)CCCC3 | 2628 | -1 | . | 5.9 | -9 | -5 | .
CN(C)CCN(C(=O)c1ccc2c(c1)OCCO2)c1nc2cc3c(cc2s1)OCO3 | 5917 | -2 | -6 | -2.0 | -10 | -1 | -3
COc1ccc(OCCC(=O)c2ccc(OC)cc2)cc1 | 4437 | 3 | 9 | 2.1 | -25 | 4 | 6
COc1ccc(CNc2cc(NCCCO)c([N+](=O)[O-])c3nonc23)cc1 | 2388 | 10 | 10 | 3.4 | 1 | 9 | -2
COc1ccc(NC(=S)NCc2ccc(S(N)(=O)=O)cc2)c(OC)c1 | 1941 | -7 | 13 | 3.2 | -23 | 0 | 1
COc1cc(/C=C2/C(=O)NN(c3ccc(Cl)cc3)C2=O)cc(Br)c1O | 4410 | -5 | -5 | 4.6 | -10 | 8 | -5
COc1ccc(C(NC(=O)c2cc(OC)ccc2OC)c2ccccc2)cc1 (centres undefined) | 3907 | -10 | 6 | -8.1 | 2 | 6 | 4
O=C(NCCc1ccccn1)c1c(-c2ccccc2)sc2ccccc12 | 4124 | . | 8 | 20 | -23 | -19 | 13
CSc1cccc(NC(=O)Nc2nc3c(C)cccc3s2)c1 | 3597 | 3 | . | . | -22 | . | .
Cc1ccc(N2CCN(CC3CC=CCC3)CC2)cc1 (centres undefined) | 21210* | 1 | -5 | -3.8 | -9 | 11 | 0
COc1ccc(NC(=O)c2cc(-c3ccco3)nc3ccccc23)cc1 | 5923 | -7 | -10 | 4.3 | -9 | 2 | 12
COc1ccccc1NC(=O)CN1C(=O)CSC(C)C1=O (centres undefined) | 2672 | 2 | 0 | 4.9 | -13 | 6 | -3
CCOC(=O)c1cnc2ccc(C)cc2c1Nc1ccc(N2CCOCC2)cc1 | 3400 | -2 | . | 9.4 | -3 | -4 | .
C/C(=N\NS(=O)(=O)c1ccccc1)c1ccc2c(c1)OCO2 | 2615 | 4 | . | . | -11 | . | .
Cc1nc2ccc(-c3ccccc3)cc2o1 | 4707 | -5 | . | 11 | -15 | 1 | .
CCCCN(C(=O)c1cccc(C)c1)c1c(N)n(CCC)c(=O)[nH]c1=O | 6233 | -8 | -2 | 4.3 | -13 | 0 | -1
CNS(=O)(=O)c1cn(CC(=O)NCc2ccc(N(C)C)cc2)cc1S(=O)(=O)NC | 3881 | -5 | 7 | -1.2 | -24 | 2 | 5
Cc1nc2ccccn2c1C(O)=C1C(=O)C(=O)N(CCN(C)C)C1c1cccnc1 (centres undefined) | . | . | 15 | 9.3 | . | -1 | 13
O=[N+]([O-])c1cccc(NP(=O)(Oc2ccccc2)Oc2ccccc2)c1 | 2983 | 10 | -6 | 6.1 | -20 | -16 | -10
CCOc1ccccc1N(CC(=O)NC1CCCCC1)C(=O)CCCC(=O)Nc1ccccn1 | 2489 | 0 | -6 | -2.0 | 3 | -11 | 5
O=C(COc1ccccc1)N1CCN(C(=O)Cc2ccccc2)CC1 | 4241 | -3 | . | 2.7 | 4 | 4 | .
CC(=O)Nc1nc(CCN2C(=O)c3ccccc3C2=O)cs1 | 4480 | -13 | -9 | 4.4 | -20 | 12 | 9
COc1ccc(-c2cc3cc(OC)c(OC)cc3c(C)n2)cc1 | 5042 | 1 | 5 | 16 | -27 | 6 | 4

# Compound activity from PubChem.
